gsp ag: agonists of gsp mutant (McCune-Albright syndrome); gsp mutant cells, cAMP HTRF, 30 min; control for the full effect not named in the record; Potency, µM (series often up to 76.9 µM), for the others: top-dose activation (cAMP increase), actives largely listed as activators; actives 0.13% (n = 340,000); active = well fitted activation curve with a large enough effect; inconclusive = small, poorly fitted or top-dose-only effect, or another doubt; inactive = no such curve, though single readings can be large or run the other way; cell line not stated here;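 note: phosphodiesterase inhibitor Ro 20-1724 added with compounds to block cAMP breakdown; potency is the fitted concentration of half-maximal effect; nearly all actives have a fitted effect of over 60% in size; about a fifth of the inactives were tested at one dose only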
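Cells in DMEM/10% FBS with G418 were pretreated with compounds in DMSO plus […] (300 uM stock) for 30 min at 37C. cAMP was measured by HTRF (cAMP-d2 plus anti-cAMP antibody-K) after 30 min at room temperature.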
Menin-MLL FL inh: displaces fluorescein MLL peptide from human menin; 290,000 tested, under 10 active; Fluorescence polarization, fluorescein-MLL peptide displacement from menin; AID 1766; FP activity change, % at 61.4 µM; inconclusive = falling polarisation curve, or a change in total fluorescence; inactive = total fluorescence flat and polarisation flat or rising; no compound was filed as active; the % refers to the polarisation; negative = inhibition;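 note: % of control where 0% means no effect; inhibitors lower the polarisation; unlabelled MLL peptide was the positive control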
ClpP mod: qHTS Assay for Activators of ClpP; ATP-dependent Clp protease proteolytic subunit (Bacillus subtilis (strain 168)), P80244; purified B. subtilis ClpP, FRET peptide cleavage, 20 min; Potency, µM (top dose mostly 57.5 µM), inactives show at the highest dose activity change, negative = active; actives 1.9% (n = 340,000); active = well fitted falling curve with a large enough effect; inconclusive = small, poorly fitted or top-dose-only effect; inactive = no such curve, though single readings can be large or run the other way; note: potency is the fitted concentration of half-maximal effect; the source files actives as falling curves though it sought activators and does not explain the sign; nearly all actives have a fitted effect of over 65% in size; many hits overshoot -100%
Target sequence (P80244 whole entry, looked up): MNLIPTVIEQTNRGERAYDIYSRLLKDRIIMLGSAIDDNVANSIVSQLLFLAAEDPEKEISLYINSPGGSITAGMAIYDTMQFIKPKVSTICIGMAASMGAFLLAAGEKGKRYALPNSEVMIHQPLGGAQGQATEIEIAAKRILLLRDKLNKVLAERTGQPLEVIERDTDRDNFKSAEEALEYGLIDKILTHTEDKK
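FRET quenching reversal measured ClpP activation: 10 microg/mL B. subtilis ClpP at pH 8 with the FRET-FV decapeptide, read at 430 nm after 320 nm excitation. The 20-min minus 0-min signal was scaled between DMSO/no-enzyme wells and ADEP (5.8 microM final).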
D2 PAM: human D2 receptor positive allosteric modulation; AID 624464; actives 0.23% (n = 360,000); DiscoveRx D2 beta-arrestin cells, luminescence, 90 min; 100% = 57 uM dopamine signal; P14416; potentiation, % (concentration not given with the values); active = potentiation of 50% or more; inconclusive = 30% to 50%; inactive = 30% or less;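 note: compound concentration not given in the record; tested on top of an EC20 dose of dopamine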
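D2 cells co-treated with compound plus 50 nM dopamine (EC20) for 90 min at 37 deg C to detect potentiation. Beta-arrestin recruitment was read as enzyme-fragment luminescence after 1 h at ambient temperature. Full response was set by 57 uM dopamine.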
gsp antagonist: antagonizes gsp, the McCune-Albright syndrome mutation; gsp-mutant cells, cAMP HTRF, 30 min; control for the full effect not named in the record; Potency, µM (highest dose often 76.9 µM), without a hit: at the top dose activity change, negative = inhibition, hits mostly inhibitors; actives 0.4% (n = 340,000); active = falling curve of any shape with a large fitted effect; inconclusive = falling curve, mostly with a smaller effect; inactive = flat or rising curve; cell line not stated here;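 note: intracellular cAMP measured with PDE inhibitor Ro 20-1724 present during compound exposure; potency is the fitted concentration of half-maximal effect; % is set by controls: 0 for no effect and ±100 for the full control effect; nearly all actives have a fitted effect of over 65% in size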
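HTRF cAMP read-out (cAMP-d2 plus anti-cAMP antibody-K in lysis buffer, 30 min RT). Before lysis, cells are exposed to compounds with […] for 30 min at 37C in DPBS containing Ca/Mg, BSA and Tween 20.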
TRPV1 potentiator: human TRPV1 potentiation; Q8NER1; TRPV1-expressing cells, Fluo-8 calcium influx, capsaicin EC20 potentiation; host cell line not named in the record; control for the full effect not named in the record; potentiation, % at 8.33 µM; actives 0.02% (n = 320,000); active means potentiation above 80%; inconclusive means 30% to 80%; inactive means below 30%; note: 0% is about no effect
Target sequence (Q8NER1 whole entry, looked up): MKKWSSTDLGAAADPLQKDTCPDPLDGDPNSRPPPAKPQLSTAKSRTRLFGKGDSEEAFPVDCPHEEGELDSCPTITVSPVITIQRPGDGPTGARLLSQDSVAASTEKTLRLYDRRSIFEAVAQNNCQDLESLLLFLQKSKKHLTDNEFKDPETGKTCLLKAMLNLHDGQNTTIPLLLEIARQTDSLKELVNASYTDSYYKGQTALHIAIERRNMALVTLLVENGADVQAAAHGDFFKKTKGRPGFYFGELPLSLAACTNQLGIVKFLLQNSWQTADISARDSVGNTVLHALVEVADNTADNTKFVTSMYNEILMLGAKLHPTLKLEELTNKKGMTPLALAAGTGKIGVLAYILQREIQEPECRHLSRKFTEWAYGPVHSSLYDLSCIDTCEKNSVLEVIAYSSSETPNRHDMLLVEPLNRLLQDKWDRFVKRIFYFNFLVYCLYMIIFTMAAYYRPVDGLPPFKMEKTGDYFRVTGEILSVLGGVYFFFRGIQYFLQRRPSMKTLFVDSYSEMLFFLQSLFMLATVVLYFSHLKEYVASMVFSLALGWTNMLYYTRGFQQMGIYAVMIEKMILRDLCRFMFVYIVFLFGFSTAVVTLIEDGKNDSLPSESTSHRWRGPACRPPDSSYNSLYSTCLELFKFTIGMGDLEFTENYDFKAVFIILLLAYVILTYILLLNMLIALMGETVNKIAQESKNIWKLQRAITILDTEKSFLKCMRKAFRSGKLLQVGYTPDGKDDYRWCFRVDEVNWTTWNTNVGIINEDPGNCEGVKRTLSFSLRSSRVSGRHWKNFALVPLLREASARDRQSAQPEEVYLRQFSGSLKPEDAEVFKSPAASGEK
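TRPV1-expressing cells were cultured overnight at 35.5C and loaded with Fluo-8 calcium dye for 40 to 90 min at room temperature. After a 10 s baseline, compound was added and calcium influx was read kinetically for 3 min (ex 480/em 520 nm).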
Sfp inh: Sfp phosphopantetheinyl transferase inhibition | Q9F4F7 | Biochemical Sfp PPTase activity, qHTS | Potency, µM, for inactives: max response, negative = inhibition, most hits filed as inhibitors | actives 3.5% (n = 310,000) | AID 1490; active = well fitted inhibition curve with a large enough effect; inconclusive = small, poorly fitted or top-dose-only effect, or another doubt; inactive = no such curve, though single readings can be large or run the other way;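 note: the enzyme is Sfp with the accession as filed and its product quenches rhodamine fluorescence; potency is the fitted concentration of half-maximal effect; 0% = enzyme reaction without inhibitor and -100% = no enzyme wells; top concentration of the series not given in the record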
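Fluorescence-quenching assay: 15 nM Sfp-PPTase preincubated 15 min at room temperature with compound, then 5 uM rhodamine-CoA and 12.5 uM BHQ-2-labelled YbbR peptide added. Fluorescence (ex 525/em 598 nm) read at start and after 30 min; difference gives rate.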
* hit, by the source's call; ? = inconclusive; nt = not tested or not shown; [ ] = dose if it differs, or a comment.

SMILES	gsp ag	Menin-MLL FL inh	ClpP mod	D2 PAM	gsp antagonist	TRPV1 potentiator	Sfp inh
CCN(CCc1ccccc1)c1ccc2c(c1)C1CC2CCN1Cc1ccccc1 (stereo not given)	-10%	nt	-2.1%	-1	nt	nt	nt
Cc1[nH]c2ccccc2c1NC(=O)CN1CCN(Cc2ccc3c(c2)OCO3)CC1	nt	3.3	nt	nt	nt	2	10%
CCOC(=O)c1c(NC(=O)CSc2nnc(-c3cccc(C)c3)n2CC)sc(C(C)=O)c1C	-3%	20	-2.5%	-7	?	5	9%
O=C(CCC1CCCC1)Nc1cc(C(F)(F)F)ccc1N1CCOCC1	14%[15.4 µM]	nt	nt	-10	1%	-22	nt
CCC(C)NS(=O)(=O)c1cc2c3c(c1)CCN3C(=O)CC2 (stereo not given)	-23%	0.2	0.1%	2	13%	-9	7%
Cc1cc(C)c(NC(=O)CS(=O)CC(=O)Nc2ccc(F)cc2F)c(C)c1 (stereo not given)	-2%	-0.4	-2.3%	-9	0%	3	10%
O=C(CC1CCCCC1)OCn1nnc2ccccc2c1=O	-38%[inhibitor]	1.5	-4.2%	-5	-3%	-10	12%
COc1ccc(-c2csc(N(CCCN(C)C)C(=O)c3cc(OC)c(OC)c(OC)c3)n2)cc1	-30%	1.1	-0.6%	-6	?	-15	5%
CCOC(=O)c1sc(N)nc1-c1ccccc1	26%	3.6	-2.3%	-5	11%	1	-8%
CCOC(=O)C(=CNc1ccc(N2CCOCC2)cc1)C(=O)OCC	-21%	-3.1	-0.2%	24	-19%	17	6%
CC(C(=O)N(C)C)N(C#N)c1nc(N(C)C)nc(N(C)C)n1 (stereo not given)	1%	0.2	0.6%	-7	3%	5	1%
O=c1c(-c2nnc(SCc3ccc(Cl)cc3)o2)cccn1Cc1ccccc1	?	3.6	55%	-16	-10%	?	16%
O=c1[nH]cnc2c1sc1nc(-c3ccccc3)c3c(c12)CCCC3	15%	5.0	nt	-1	6%	-7	-6%
N#Cc1nc(-c2ccc(Cl)cc2)oc1NCCc1ccccn1	-21%	4.7	32µM*	-9	5%	-14	10%
COc1ccc(Cl)cc1-n1c(=S)sc2c(=O)[nH]c(SCC(=O)NCC3CCCO3)nc21 (stereo not given)	-24%	11	-2.3%	-7	?	6	-3%
CCOc1ccc(CCNC(=O)c2sc3nc4n(c(=O)c3c2C)CCC4)cc1	?	-2.7	-1.9%	-4	-4%	-3	-3%
Cc1cc(NC(=O)CC(C)C)c(=O)n(Cc2ccccc2F)c1	?	14	-14%	-25	7%	15	-6%
Cc1cc(C)c2[nH]c(=O)c(C(c3nnnn3Cc3ccc4c(c3)OCO4)N3CCC(C)CC3)cc2c1 (stereo not given)	-1%	3.7	-17%	-2	-12%	-1	23%
Cc1cc(-c2ccc(Cl)cc2)n2nc(C)cc2n1	5%	2.9	0.2%	-1	2%	-7	18%
Cn1cccc1C(=O)N1CCN(S(=O)(=O)c2ccccc2)CC1	?	nt	-0.1%	-12	-5%	-9	nt
C/C(=N\OCC(=O)OCC(=O)N(C)c1ccccc1)c1ccc2c(c1)OCO2	0%	nt	0.5%	3	-10%	7	nt
Cn1nnnc1SCC(=O)NC1CCCc2ccccc21 (stereo not given)	14%[15.4 µM]	-4.2	-0.1%	-5	-8%	-10	23%
CC(C)OC(=O)c1cc(Cl)c(=O)n(Cc2ccc(Cl)cc2Cl)c1	-6%	1.0	-0.7%	11	-9%	0	-4%
CCOc1ccccc1C(=O)Nc1cc(C)ccc1NC(=O)c1ccco1	0%	nt	-2.6%	-4	-14%	0	11%
O=C(CNS(=O)(=O)c1ccc2ccccc2c1)OCc1csc(-c2ccccc2)n1	0%	6.2	-1.7%	-12	-16%	4	-1%

Some of the entries so far, comma-delimited.
molecule,gsp ag,Menin-MLL FL inh,ClpP mod,D2 PAM,gsp antagonist,TRPV1 potentiator,Sfp inh
Cc1cc(-c2ccc(Cl)cc2)n2nc(C)cc2n1,5%,2.9,0.2%,-1,2%,-7,18%
Cn1cccc1C(=O)N1CCN(S(=O)(=O)c2ccccc2)CC1,?,nt,-0.1%,-12,-5%,-9,nt
C/C(=N\OCC(=O)OCC(=O)N(C)c1ccccc1)c1ccc2c(c1)OCO2,0%,nt,0.5%,3,-10%,7,nt
Cn1nnnc1SCC(=O)NC1CCCc2ccccc21 (stereo not given),14%[15.4 µM],-4.2,-0.1%,-5,-8%,-10,23%
CC(C)OC(=O)c1cc(Cl)c(=O)n(Cc2ccc(Cl)cc2Cl)c1,-6%,1.0,-0.7%,11,-9%,0,-4%
CCOc1ccccc1C(=O)Nc1cc(C)ccc1NC(=O)c1ccco1,0%,nt,-2.6%,-4,-14%,0,11%
O=C(CNS(=O)(=O)c1ccc2ccccc2c1)OCc1csc(-c2ccccc2)n1,0%,6.2,-1.7%,-12,-16%,4,-1%

Later entries:
SMILES	gsp ag	Menin-MLL FL inh	ClpP mod	D2 PAM	gsp antagonist	TRPV1 potentiator	Sfp inh
CCCCN1C(=O)C(CC(=O)NCC2CCCCC2)CC(C(=O)N(C(C)C)C(C)C)=C1C (stereo not given)	15%	nt	-0.4%	0	nt	nt	nt
O=C(NNC(=O)c1ncc(Cl)c(Cl)c1Cl)c1ccc(F)cc1	?	nt	-2.2%	-2	-9%	-9	12%
CCOC(=O)c1c(NC(=O)CSc2nnnn2-c2ccccc2)sc2c1CCC(C)C2 (stereo not given)	-7%	2.6	-2.8%	0	-5%	2	-1%
Cc1nc2n[nH]c(N)c2nc1C	?	nt	1.0%	-3	nt	nt	nt
COC(=O)c1ccccc1NC(=O)CSCC(=O)Nc1ccccc1	-2%	4.1	-8.0%	3	13%	-8	23%
C/C(=C\c1ccccc1)CN1CCN(C)CC1	8%	1.7	0.7%	-9	2%	-9	-23%
COCCn1c(CN2CCN(c3cccc(Cl)c3)CC2)nc2c1c(=O)n(C)c(=O)n2C	30%	3.4	-0.6%	-8	-3%	nt	-14%
N#Cc1cccc(C(=O)Nc2ccccc2C(=O)NC2CC2)c1	-9%[15.4 µM]	nt	nt	-7	-2%	-25	nt
CC(=O)Nc1ccc(C(=O)OCC(=O)Nc2c(C)n(C)n(-c3ccccc3)c2=O)cc1	-28%	nt	-1.7%	-1	7%	nt	nt
Clc1ccc(CNc2nc(CN3CCOCC3)nc3scc(-c4ccccc4)c23)cc1	-53%	2.3	-1.8%	-3	-42%	-12	56µM*
COc1ccc(CCNc2cc(C)nc(N)n2)cc1OC	-21%	-5.6	-1.1%	0	6%	-7	-7%
O=C(CN1C(=O)NC(CCc2ccccc2)C1=O)Nc1ccccc1C(F)(F)F (stereo not given)	-23%	nt	-0.7%	-1	2%	nt	nt
O=C(N=C1SC2CS(=O)(=O)CC2N1c1ccc(Cl)cc1)C1CCCO1 (stereo not given)	23%	nt	-0.7%	-16	18%	-15	14%
COc1ccccc1-n1c(SCC(=O)O)nc2c(sc(=S)n2-c2ccc(Cl)c(C)c2)c1=O	-2%	9.8	1.7%	-3	?	2	5%
CCn1c(CCNC(=O)c2cccs2)nnc1SCC(=O)Nc1cccc(Cl)c1	10%	nt	0.0%	-6	3%	nt	nt
CNC(=O)C1CC(=O)N(CCc2ccc(C)cc2)C1 (stereo not given)	13%	-0.2	nt	3	4%	7	14%
Cc1cc(C)c(C(=O)Nc2cccc(F)c2)c(Cl)n1	15%	2.6	1.7%	-10	3%	9	14%
O=C(Nc1c(C(=O)N2CCCC2)cnn1-c1ccccc1)c1cccc(F)c1	-14%	-0.1	-2.2%	5	3%	3	10%
Cc1nc(NC(=O)CCC(=O)O)sc1C(=O)N(C)C	?	4.0	0.6%	-1	10%	4	17%
CNC(=S)NC1CC2CCC(C1)N2Cc1ccccc1 (stereo not given)	-7%	-6.0	-0.4%	-27	-1%	-14	13%
CN(C)S(=O)(=O)c1ccc2c(c1)c(=O)c(C(=O)N1CCN(c3ccccn3)CC1)cn2C	-10%	2.2	-0.1%	-3	0%	nt	0%
COc1ccc(NC(=O)C(c2ccc(OC)cc2)N(C)C(=O)c2cnccn2)cc1 (stereo not given)	6%	0.5	0.7%	-18	-3%	-3	7%
O=C(CSc1cn(CCNC(=O)c2c(F)cccc2F)c2ccccc12)NCC1CCCO1 (stereo not given)	-6%	1.0	-0.8%	-5	-3%	1	4%
CCCCCOc1ccc(C(C)(O)C(CN2CCOCC2)c2ccccc2)cc1 (stereo not given)	14%	0.4	1.2%	-6	12%	-8	6%
CC(C)(C)C1CCc2nc(NC(=O)Cc3cn4ccsc4n3)sc2C1 (stereo not given)	23%	1.8	-1.3%	1	3%	-4	1%

An excerpt from above in order of heavy-atom count, ascending.
SMILES	gsp ag	Menin-MLL FL inh	ClpP mod	D2 PAM	gsp antagonist	TRPV1 potentiator	Sfp inh
N#Cc1cccc(C(=O)Nc2ccccc2C(=O)NC2CC2)c1	-9%[15.4 µM]	nt	nt	-7	-2%	-25	nt
O=C(Nc1c(C(=O)N2CCCC2)cnn1-c1ccccc1)c1cccc(F)c1	-14%	-0.1	-2.2%	5	3%	3	10%
CCn1c(CCNC(=O)c2cccs2)nnc1SCC(=O)Nc1cccc(Cl)c1	10%	nt	0.0%	-6	3%	nt	nt

Bioassay records deposited in PubChem by National Center for Advancing Translational Sciences (NCATS).
